Compound activity deposited in PubChem BioAssay by several laboratories.
Insulin prom inh: TRM-6 insulin promoter activity inhibition. AID 1273. TRM-6 cells (human fetal islet line), insulin promoter-eGFP reporter, imaging; reporter expression induced with tamoxifen. inhibition, % at 2 µM. actives 0.9% (n = 130,000);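 active means inhibition above the mean plus 3 SD, with well images judged a real hit on visual review, cut at about 60% in these data, passing the limit was not always enough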
GALR2 agonist: GALR2 (human) receptor agonism. AID 803. O43603. GALR2-expressing cells, agonist activation read-out. actives 0.48% (n = 140,000). activation, %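 (tested at 5 µM)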;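 active means above mean plus 3 SD of all compounds, about 5% in these data, not always enough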;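 further: 0% = vehicle buffer wells and 100% = reference agonist at full effect; tested in CHO reporter cells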
Target sequence (O43603 whole entry, looked up): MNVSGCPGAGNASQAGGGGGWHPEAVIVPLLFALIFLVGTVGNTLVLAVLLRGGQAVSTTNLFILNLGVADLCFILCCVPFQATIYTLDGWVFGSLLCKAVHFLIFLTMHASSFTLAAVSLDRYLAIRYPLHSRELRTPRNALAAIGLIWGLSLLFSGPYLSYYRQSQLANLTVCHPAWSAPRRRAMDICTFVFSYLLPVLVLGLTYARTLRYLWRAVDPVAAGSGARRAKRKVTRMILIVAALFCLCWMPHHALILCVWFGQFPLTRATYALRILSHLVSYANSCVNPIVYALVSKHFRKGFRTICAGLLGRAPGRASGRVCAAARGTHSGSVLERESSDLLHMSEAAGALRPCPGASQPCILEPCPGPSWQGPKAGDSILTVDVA
RGS16-Gao HTS: regulators of human RGS16-Galphao interaction; O15492+P09471; binding response (% of control), % at 10 µM; actives 0.38% (n = 220,000); bead-based flow cytometry RGS16-Galphao binding, fluorescence; actives lie on both sides;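 active means below 25% or above 175%, edge rows of some plates excepted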;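 further: Galphao activated by GDP with aluminum fluoride before binding; 100% = wells without compound and 0% = beads without RGS; some results beyond the cut were filed as inactive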
Target sequence (O15492 whole entry, looked up): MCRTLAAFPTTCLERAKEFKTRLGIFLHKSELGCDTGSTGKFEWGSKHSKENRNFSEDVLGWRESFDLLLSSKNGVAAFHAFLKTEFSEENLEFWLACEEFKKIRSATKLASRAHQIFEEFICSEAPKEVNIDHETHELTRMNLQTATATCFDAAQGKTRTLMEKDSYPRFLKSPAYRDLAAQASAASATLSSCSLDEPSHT
Target sequence (P09471 whole entry, looked up): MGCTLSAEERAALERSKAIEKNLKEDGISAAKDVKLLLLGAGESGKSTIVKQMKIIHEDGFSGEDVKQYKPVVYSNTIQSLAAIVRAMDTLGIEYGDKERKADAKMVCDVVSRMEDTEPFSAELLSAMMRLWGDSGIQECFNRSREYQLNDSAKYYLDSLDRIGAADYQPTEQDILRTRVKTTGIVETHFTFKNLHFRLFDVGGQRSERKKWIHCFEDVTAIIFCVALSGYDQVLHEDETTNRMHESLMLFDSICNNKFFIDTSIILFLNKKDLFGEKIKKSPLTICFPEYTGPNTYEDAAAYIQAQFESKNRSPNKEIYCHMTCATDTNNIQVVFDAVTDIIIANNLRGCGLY
HSV augment: increases HSV replication in cells; HSV replication augmentation in cells, fold increase; maximum fold increase; actives 0.005% (n = 220,000);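 active means peak rise of 1.5-fold or more in the series; tested in PC3 cells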;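 further: first round at 10 µM; read as green reporter fluorescence; hits show the peak of a series up to 25 µM; 1 = signal of infected wells without compound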
PKD1 kinase inh: inhibitors of human PKD1 kinase; Q15139; PKD1 kinase fluorescence polarization assay; inhibition, %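 (about 10 µM by stock and volumes)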; actives 0.056% (n = 200,000);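 active means inhibition of 50% or more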;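 further: controls were vehicle for no effect and a reference inhibitor for full effect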
Insulin prom inh cell count: further read-out of Insulin prom inh, marked with its call; normalized cell count, %; measured here: cell count, toxicity; reference of the scale not given here;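 cells exposed to compound for 48 h; stained nuclei by imaging scaled within each plate; lower means fewer cells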
HSV augment primary fold: further read-out of HSV augment, marked with its call; fold increase; compound at 10 µM; measured here: primary screen fold increase 10 uM; tested in PC3 cells;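 GFP signal in the first replicate; 1 = infected wells without compound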
The depositor's hits bear a star; i = inactive; . = not tested or not shown. This is a random part of the collection; any-hit rate near 1.3%.

SMILES	Insulin prom inh	Insulin prom inh cell count	GALR2 agonist	RGS16-Gao HTS	HSV augment	HSV augment primary fold	PKD1 kinase inh
COC(=O)c1cc(N2C(=O)C3C(C2=O)C2(C)C=CC3(C)O2)ccc1Cl (stereo unspecified)	.	.	-2.6	78	i	0.82	-4
CN(Cc1cc(=O)n2ccsc2n1)c1ccccc1	.	.	-1.4	84	i	0.99	-5
CCn1nc(C(=O)NCCc2ccc(S(N)(=O)=O)cc2)c2ccccc2c1=O	.	.	-2.3	99	i	0.85	1
COCCNC(=O)CSc1nc2scc(-c3ccccc3)c2c(=O)[nH]1	.	.	.	103	i	0.97	.
CC(C)C(=O)NCCn1ccc2ccccc21	-9	81	-0.9	107	i	0.91	-3
C=CCn1c(N)c(C(=O)OCCC)c2nc3ccccc3nc21	3	137	1.8	122	i	1	-4
CC1(C)C(=O)OC(C(=O)c2ccccc2)C(C)(C)C1=O (stereo unspecified)	0	105	-3.2	106	i	1.1	-6
COc1cc2cc(C)c(SCC(=O)N3CCN(C(=O)c4ccco4)CC3)nc2cc1OC	.	.	.	100	i	0.93	.
C/C(=N\NC(=O)C1CC1(c1ccccc1)c1ccccc1)c1cccc([N+](=O)[O-])c1 (stereo unspecified)	18	101	-0.1	110	i	1	9
CCN1C(=O)CS/C1=N\S(=O)(=O)c1ccc(C)cc1	-6	197	.	104	i	1.2	1
COCCNC(=O)CSc1nnc2c(Cl)cc(Cl)cn12	-44	82	-1.0	104	i	0.93	-8
Cc1cc(/C=C2\NC(=O)NC2=O)c(C)n1-c1ccc(N2CCOCC2)cc1	.	.	.	92	i	1.2	.
O=C(C1CCN(S(=O)(=O)N2CCOCC2)CC1)N1CCN(c2ccccc2)CC1	8	142	-0.6	108	i	1.1	-8
O=C(COC(=O)c1ccc2c(c1)OCO2)NCc1ccc2c(c1)OCO2	42	139	-2.6	126	i	0.98	-8
CCOC(=O)c1cccc(COC(=O)c2cccc(-c3nnc(-c4ccccc4)o3)c2)c1	-413	64	-1.6	107	i	1.2	-9
CC(/C=C/c1ccccc1)=N\NC(=O)CNC(=O)c1ccccc1Cl	9	148	-1.6	101	i	0.83	-11
Cc1ccc(C(=O)NNC(=O)C2CCN(S(=O)(=O)c3ccc(Cl)cc3)CC2)cc1	-23	156	-1.6	108	.	.	-3
CC(=O)c1ccc(NC(=S)N2CCC(O)CC2)cc1	.	.	-0.7	99	i	0.91	-5
COC(=O)c1ccc(CSc2nnc(CNC(=O)c3cccs3)o2)o1	7	121	-1.0	101	i	1.2	-7
Cc1ccc(C)c(NNC(=O)C(=O)NNc2cc(C)ccc2C)c1	.	.	.	101	i	1	.
Oc1cccc(/C=N\Nc2nncc(-c3ccccc3)n2)c1	44	85	.	111	i	1.1	0
CC(C)C[C@@H](CN(N=O)[C@@H](Cc1ccccc1)CN(C)N=O)N(CCc1ccccc1)N=O	.	.	.	100	i	0.92	-3
COCC(C)NC(=O)NC(=O)c1ccc(Cl)cc1 (stereo unspecified)	-77	163	-2.7	107	i	0.92	0
CC1(C)CC(=O)C=C(Nc2ccccc2NC(=O)c2cnccn2)C1	5	98	-0.2	86	i	0.98	-10
CN1CCN(CCCNC(=O)Cn2nc(-c3ccccc3)ccc2=O)CC1	.	.	-0.8	105	i	0.85	3
C=C(C)Cn1c(SCC#N)nc2ccccc2c1=O	62	97	-2.6	101	i	0.99	-2
CSc1nc(N)nc(SCC(=O)c2ccc(C)cc2)c1C#N	.	.	-1.2	95	i	0.8	-3
CC(Oc1cccc2c1OC(C)(C)C2)C(=O)O (stereo unspecified)	50	107	-1.5	101	i	0.89	0
CCN(CCCNC(=O)CCn1c(=O)[nH]c2ccsc2c1=O)c1ccccc1	-25	184	.	100	i	0.94	-7
CCOc1ccccc1CN1CCN(Cc2cc3ccccc3[nH]2)CC1CCO (stereo unspecified)	.	.	.	101	i	1.1	-1

Some of the entries so far, with two lines to a compound.
The line under a structure holds: Insulin prom inh | Insulin prom inh cell count | GALR2 agonist | RGS16-Gao HTS | HSV augment | HSV augment primary fold | PKD1 kinase inh
- COC(=O)c1ccc(CSc2nnc(CNC(=O)c3cccs3)o2)o1
  7 | 121 | -1.0 | 101 | i | 1.2 | -7
- Cc1ccc(C)c(NNC(=O)C(=O)NNc2cc(C)ccc2C)c1
  . | . | . | 101 | i | 1 | .
- Oc1cccc(/C=N\Nc2nncc(-c3ccccc3)n2)c1
  44 | 85 | . | 111 | i | 1.1 | 0
- CC(C)C[C@@H](CN(N=O)[C@@H](Cc1ccccc1)CN(C)N=O)N(CCc1ccccc1)N=O
  . | . | . | 100 | i | 0.92 | -3
- COCC(C)NC(=O)NC(=O)c1ccc(Cl)cc1 (stereo unspecified)
  -77 | 163 | -2.7 | 107 | i | 0.92 | 0
- CC1(C)CC(=O)C=C(Nc2ccccc2NC(=O)c2cnccn2)C1
  5 | 98 | -0.2 | 86 | i | 0.98 | -10
- CN1CCN(CCCNC(=O)Cn2nc(-c3ccccc3)ccc2=O)CC1
  . | . | -0.8 | 105 | i | 0.85 | 3
- C=C(C)Cn1c(SCC#N)nc2ccccc2c1=O
  62 | 97 | -2.6 | 101 | i | 0.99 | -2
- CSc1nc(N)nc(SCC(=O)c2ccc(C)cc2)c1C#N
  . | . | -1.2 | 95 | i | 0.8 | -3
- CC(Oc1cccc2c1OC(C)(C)C2)C(=O)O (stereo unspecified)
  50 | 107 | -1.5 | 101 | i | 0.89 | 0
- CCN(CCCNC(=O)CCn1c(=O)[nH]c2ccsc2c1=O)c1ccccc1
  -25 | 184 | . | 100 | i | 0.94 | -7
- CCOc1ccccc1CN1CCN(Cc2cc3ccccc3[nH]2)CC1CCO (stereo unspecified)
  . | . | . | 101 | i | 1.1 | -1

(further entries)
SMILES	Insulin prom inh	Insulin prom inh cell count	GALR2 agonist	RGS16-Gao HTS	HSV augment	HSV augment primary fold	PKD1 kinase inh
Cc1sc2c(c1C)c(=O)n(-c1ccc(F)cc1)c(=O)n2CC(=O)NCc1ccco1	11	114	-0.8	98	i	0.9	-4
N#CC1=C(N)N(c2ccccc2)C(c2ccccc2)C1(C#N)C#N (stereo unspecified)	39	100	2.8	97	i	1	-5
CCCNC(=O)NC1CCCCCCC1	.	.	.	100	i	1	1
CCOC(=O)c1cnn(-c2ccccn2)c1N	.	.	-0.8	153	i	0.86	2
Cc1cc(N2CCN(C)CC2)nc2ccc(NC(=S)NCCCN3CCN(C)CC3)cc12	.	.	.	102	i	0.89	2
C/C(=N\Nc1ccc(F)cc1)c1ccncc1	-6	127	0.0	42	i	1	-9
CC(C)Cn1c(O)c(N=NC(=O)c2cccc(S(=O)(=O)N3CCCCC3)c2)c2ccccc21	.	.	-1.3	28	i	0.8	-10
COc1ccccc1C(=O)NCCC(=O)Nc1cccnc1	.	.	.	99	i	0.93	.
COC(=O)Cn1nc(-c2ccccc2)c2ccccc2c1=O	19	131	0.0	97	i	0.88	11
CCOC(=O)C1CCN(Cc2ccccc2C(F)(F)F)CC1	9	130	-1.1	116	i	1	-3
CSCCC(NC(=O)C12CC3CC(CC(C3)C1)C2)C(=O)OCC(=O)c1ccccc1 (stereo unspecified)	.	.	-0.8	106	i	1	10
C=CCNC(=O)c1onc(CSc2ccc(OC)cc2)c1C(=O)O	-24	114	-1.5	102	i	0.97	-22
CC(=O)Nc1c(C)ccc2nsnc12	36	63	-1.1	132	i	0.84	-11
CCSC1=NC(C)(C)C=C(/C=C/c2ccc(Cl)cc2Cl)N1	29	61	0.2	102	i	0.88	9
CCOc1cc(CNc2ccc3cn[nH]c3c2)ccc1OC	-3	135	-1.0	96	i	0.88	-10
Cc1cc2occ(CC(=O)O)c2cc1C	11	125	-1.5	95	i	0.88	1
Cc1cccc(C(=O)N[C@H](C(=O)Nc2nnc(C3CC3)s2)C(C)C)c1	.	.	-0.6	87	i	1.1	-7
CCOC(CNC(=O)c1nnc(Cc2cc(OC)c(OC)c(OC)c2)o1)OCC	13	116	.	101	i	1	-1
Cc1nc(NC(CC(C)C)C(=O)O)c2nc(C)oc2n1 (stereo unspecified)	21	127	-3.0	106	i	0.95	-1
CC(=O)c1c(C)c[nH]c1C	-57	10	-3.8	98	i	0.77	-10
O=C(O)c1ccc(COc2ccccc2Cl)cc1	.	.	-1.2	95	i	1	-3
CC(=O)[C@@H]1[C@@H]2C(=O)N(C3CCCCC3)C(=O)[C@@H]2C2c3ccccc3C=CN21 (stereo partly specified)	17	118	-1.3	101	i	1	-9
CN(C)/N=C/c1ccc(OS(=O)(=O)c2ccccc2)cc1	.	.	.	113	i	1.1	-8
COc1ccc(-n2cc(CNCCCn3ccnc3)c(-c3cccc(F)c3)n2)cc1	.	.	.	103	i	0.77	-9
Cc1cc(/C=C2\SC(N)=NC2=O)c(C)n1-c1ccccc1	.	.	-1.0	97	.	.	6
CCN1CCN(CC(=O)c2cc(OC)c(OC)c(OC)c2)CC1	.	.	.	103	i	0.98	0
CNc1oc(-c2ccco2)nc1C#N	-29	120	-3.0	101	i	1	-9
O=C1CC(c2cc3c(cc2Br)OCO3)C2=C(CCCC2=O)N1 (stereo unspecified)	-6	110	-1.7	98	.	.	1
N#Cc1ccc(CSc2nnc(-c3c[nH]c4ccccc34)n2-c2ccccc2)cc1	-75	96	.	109	i	0.96	2
Cn1c(NC(=O)c2cccc(Cn3cc(Cl)cn3)c2)nc2ccccc21	-121	118	-1.1	99	i	0.84	-7
CC[C@H](C)[C@H](NC(N)=O)C(=O)NCCc1ccc(Cl)cc1	-133	47	.	103	i	1.1	-6
Cc1ccc(C(=O)N2NC(c3ccc(F)cc3)C3C(=O)N(c4ccc(C)c(C)c4)C(=O)C32)cc1 (stereo unspecified)	19	101	0.5	.	.	.	-8
COC(=O)C(Cc1csc2ccc(Cl)cc12)NC(=O)c1ccc(Cl)cc1 (stereo unspecified)	.	.	.	102	i	1.2	.
Cn1cnnc1SC/C(O)=C(\C#N)c1nc2ccccc2[nH]1	.	.	-1.0	106	i	0.87	-2
CC(C(=O)Nc1ccccc1-c1ccccc1)N1CCCCC1 (stereo unspecified)	-52	104	-1.9	103	i	0.96	-12
c1ccc(CNc2nc(CN3CCOCC3)nc3scc(-c4ccccc4)c23)cc1	-77	112	0.4	109	i	0.9	0
COc1ccc(/C(O)=C2/C(=O)C(=O)N(CCN(C)C)C2c2ccc(F)cc2)cc1Cl (stereo unspecified)	-7	117	-1.7	97	i	0.73	-12
CCOC(=O)C1=C(CN2CCSCC2)NC(=O)NC1c1cc(C)ccc1C (stereo unspecified)	11	154	0.0	103	i	1.2	-8
CC(C)CN(CC(C)C)CC(O)CN(c1ccccc1)S(=O)(=O)c1ccccc1[N+](=O)[O-] (stereo unspecified)	.	.	.	105	i	0.76	.
CCNC(=O)CN(C1CCCCC1)S(=O)(=O)c1ccc(F)cc1	.	.	0.4	102	i	0.94	-11
CC(C)=CC(=O)Nc1nnc(-c2ccc(F)cc2)s1	-33	109	-1.4	103	i	0.98	2
COc1ccc(N=C(N)SCc2ccccn2)cc1	31	181	-0.1	109	i	0.93	-3
COc1cc(CCC(=O)Nc2ccc(S(=O)(=O)NC3=NCCCCC3)cc2)cc(OC)c1OC	44	62	.	99	i	0.67	-1
NS(=O)(=O)c1ccc(NC(=O)Cc2c(F)cccc2Cl)cc1	.	.	.	108	i	0.95	-7
CCCCC(=O)Nc1nc(C)c(-c2csc(Nc3cc(OC)ccc3OC)n2)s1	-2	139	2.0	103	i	0.8	8
COc1ccc(CC(=O)Nc2cc(S(=O)(=O)N3CCCCC3)ccc2N2CCN(C)CC2)cc1	15	87	-0.4	126	i	0.86	-8
OCCCNc1nccc(-c2cc(Nc3cccc(Cl)c3)ncn2)n1	.	.	.	101	i	0.4	.
COC(=O)c1c(-c2cccc(OC)c2)csc1N	.	.	-1.1	94	i	0.94	-12
COCCCNc1nc2ccccc2[nH]c1=O	0	181	.	96	i	0.97	3
Oc1ccc(CCc2n[nH]c(=S)n2-c2ccc(F)cc2)cc1	.	.	.	95	i	1.1	.
COc1ccccc1CNC(=O)CN1CCN(Cc2ccc(Cl)cc2)C1=O	.	.	-1.9	.	i	0.85	-4
COC(=O)c1ccc(NS(=O)(=O)c2cccc3cccnc23)cc1	.	.	-3.0	101	i	0.8	0
